Source: PubChem (several laboratories)
MT1-MMP act inh: inhibitors of human MT1-MMP activation; P50281; HT1080 RFP-PRO-GFP cells, GFP/RFP ratio fluorescence, overnight; percent of plate control window, DMSO zero; GFP/RFP ratio change, % at 20 µM; 360,000 compounds, 0.061% hits;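 active = GFP/RFP ratio change of at least 30% with cell ATP level not reduced by more than half and red fluorescence within 50% of control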; note: strong numbers were not always called active
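Assay system: HT1080 cells carrying an RFP-PRO-GFP reporter | Dosing: Single dose of 20 µM compound, 1% DMSO final | Incubation: Cells overnight before dosing, compound overnight, 37 °C, 5% CO2 | Evaluation: GFP/RFP fluorescence ratio | Control set: DMSO and RFP-L50D-GFP cell wells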
CSC inhib: blocks cancer stem cells. inhibition, % at 7.5 µM. cancer stem cell-like cells viability, luminescence. AID 2717. 300,000 compounds, 1.1% hits;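 active = mean at 75% or more and at least half the replicates too; inconclusive = mean and replicates disagree; tested in HMLE shEcad cells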;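 note: 0% = median of negative and 100% = median of positive control wells; the first replicate is given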
PABP polyA inh: blocks human PABP binding to poly(A) RNA; 290,000 compounds, 1% hits; fluorescence polarization; inhibition, % at 35 µM; P11940;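 active = 50% or more with normal probe brightness, or confirmed in later tests; inconclusive = above 50% with abnormal brightness, or retests that disagree; inactive = below 50% or failed in later tests; about a fifth of its hits are not listed in these tables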;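 note: calls also rest on retests at 20 µM and on dose response follow-up; controls were probe without protein and protein plus probe with vehicle; some compounds called inactive have numbers as strong as hits; many hits fall short of the cut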
Target sequence (P11940 whole entry, looked up): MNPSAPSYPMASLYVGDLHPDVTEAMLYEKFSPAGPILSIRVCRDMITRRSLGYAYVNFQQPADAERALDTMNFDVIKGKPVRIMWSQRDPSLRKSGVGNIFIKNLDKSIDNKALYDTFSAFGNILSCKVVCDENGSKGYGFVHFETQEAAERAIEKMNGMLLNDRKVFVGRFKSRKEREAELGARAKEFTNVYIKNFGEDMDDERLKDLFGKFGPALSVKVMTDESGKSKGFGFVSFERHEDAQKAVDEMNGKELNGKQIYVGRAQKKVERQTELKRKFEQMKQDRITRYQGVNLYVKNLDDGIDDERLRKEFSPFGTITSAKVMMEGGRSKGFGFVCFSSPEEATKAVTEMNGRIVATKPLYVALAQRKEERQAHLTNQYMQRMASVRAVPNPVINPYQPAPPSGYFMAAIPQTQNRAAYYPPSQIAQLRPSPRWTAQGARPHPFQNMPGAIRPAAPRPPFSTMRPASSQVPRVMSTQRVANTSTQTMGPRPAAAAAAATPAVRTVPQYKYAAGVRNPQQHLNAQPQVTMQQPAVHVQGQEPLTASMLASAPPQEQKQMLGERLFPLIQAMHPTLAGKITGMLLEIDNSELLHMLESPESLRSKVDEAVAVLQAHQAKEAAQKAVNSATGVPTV
Rce1 inh: inhibitors of yeast Ras-converting enzyme | 290,000 compounds, 0.27% hits | Q03530 | calls only | yeast membranes, quenched prenylated peptide cleavage fluorescence | AID 2563;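 active = fall in fluorescence gain of 50% or more versus controls, with final raw signal at or below 3038400; inconclusive = same 50% fall but final raw signal above 3038400; inactive = fall in fluorescence gain under 50%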;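 note: plate controls were neutral control wells for no effect and wells lacking membranes for full effect; tested at 10 µM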
Yeast UUG start: alters start codon recognition fidelity in yeast. S. cerevisiae UUG-firefly luciferase reporter, luminescence/redox ratio. activity score, % at 18.7 µM. 350,000 compounds, 0.13% hits. AID 602363;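 active = replicate mean at a twofold rise or more, about +100% in these data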;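 note: firefly luciferase made from a UUG start codon reports start codon fidelity; reporter light over untreated wells divided by growth signal over untreated wells; some hits fall short of that in this replicate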
HIV Env fusion: inhibitors of HIV Env-mediated cell fusion; HeLa-JRFL Env/CEM21 cell fusion, luciferase; inhibition, % at 12.3 µM; 360,000 compounds, 1.1% hits; AID 651610;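 active = mean replicate inhibition score of at least 50 and every replicate individually at or above 50; inconclusive = only one of the two criteria met; inactive = mean below 50 and not all replicates reaching 50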;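 note: 0% = plate neutral controls and 100% = maraviroc near 300 nM; one replicate is shown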
eIF4H inh: inhibitors of RNA binding by human eIF4H; Q15056; eIF4H fluorescence polarization binding assay; inhibition, % at 35 µM; 290,000 compounds, 0.94% hits;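 active = 50% or more with normal probe brightness, or confirmed in later tests; inconclusive = above 50% with abnormal brightness, or retests that disagree; inactive = below 50% or failed in later tests; about a fifth of its hits are not listed in these tables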;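 note: calls also rest on retests at 20 µM and on dose response follow-up; 0% = protein and probe with vehicle and 100% = probe without protein; strong numbers were not always called active; many hits fall short of the cut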
MT1-MMP act inh RFP: recorded beside MT1-MMP act inh, whose call it bears; RFP signal change, %; measured here: RFP expression control read;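 0 = vehicle wells; hits needed this value within 50% of zero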
* marks the source's active call; other numbers are inactive results; i = inactive; ? = inconclusive; · = no result given.

Assay codes: A = MT1-MMP act inh; B = MT1-MMP act inh RFP; C = CSC inhib; D = PABP polyA inh; E = Rce1 inh; F = Yeast UUG start; G = HIV Env fusion; H = eIF4H inh
smiles: O=c1cccccc1NCc1ccccc1
  A: -3 | B: 5 | C: -4 | D: 38 | E: i | F: -23 | G: -50 | H: 26

smiles: CCOC(=O)N1CCN(C(=O)c2ccc3c(=O)n(-c4ccc(F)cc4)c(=S)[nH]c3c2)CC1
  A: -1 | B: -2 | C: -6 | D: -2 | E: i | F: -21 | G: 5 | H: -1

smiles: CCOC(=O)c1[nH]c(C)c(C(=O)OC(C)C(=O)Nc2ncc(Cl)cc2Cl)c1C (stereo not given)
  A: 6 | B: 0 | C: · | D: 8 | E: i | F: -19 | G: · | H: -5

smiles: Cc1cccc(N2CC34C=CC(O3)C(C(=O)O)C4C2=O)c1 (stereo not given)
  A: 1 | B: 3 | C: -11 | D: -1 | E: i | F: -11 | G: · | H: 1

smiles: Cc1ccc(NC(=O)COC(=O)c2ccc3ncsc3c2)c(C)c1
  A: 2 | B: 4 | C: · | D: · | E: · | F: -37 | G: -37 | H: ·

smiles: CCc1ccc(C(=O)CSc2nc3cc(S(=O)(=O)N4CCOCC4)ccc3n2CC)cc1
  A: 6 | B: -3 | C: 11 | D: -2 | E: i | F: · | G: 9 | H: -7

smiles: COc1ccc(CCNC(=O)CN(c2cc(OC)ccc2OC)S(=O)(=O)c2ccccc2)cc1
  A: -1 | B: -3 | C: -7 | D: 10 | E: i | F: -7 | G: 2 | H: 0

smiles: COc1ccc(S(=O)(=O)N2CCOC2CNC(=O)C(=O)NCc2ccccn2)cc1C (stereo not given)
  A: 0 | B: 0 | C: -4 | D: -2 | E: i | F: -26 | G: -6 | H: 7

smiles: Cc1cccc(C)c1OC(=O)CCN1C(=O)C2C3C=CC(C4CC34)C2C1=O (stereo not given)
  A: 2 | B: 1 | C: 6 | D: -10 | E: i | F: · | G: 1 | H: -15

smiles: O=C(COc1ccc(S(=O)(=O)NC2CCCCC2)cc1)Nc1ccc2c(c1)OCCO2
  A: -1 | B: -4 | C: -15 | D: -8 | E: i | F: 3 | G: 7 | H: -1

smiles: COC(=O)[C@H](Cc1ccccc1)NC(=O)NCCc1ccc(OC)cc1
  A: -1 | B: 2 | C: -10 | D: 6 | E: i | F: 0 | G: 4 | H: -9

smiles: Cc1ccc(-c2cccc(C3CC=CC4C3C(=O)N(Cc3ccccc3)C4c3ccc4ccccc4c3)c2)cc1 (stereo not given)
  A: 3 | B: -9 | C: 13 | D: -5 | E: i | F: -1 | G: 22 | H: -9

smiles: COC(=O)CN1C(=O)C2(C(C#N)=C(N)Oc3c2c(C)nn3-c2ccccc2)c2ccccc21 (stereo not given)
  A: 7 | B: 4 | C: -4 | D: 7 | E: i | F: -16 | G: · | H: 0

smiles: O=C(COC(=O)c1cc(=O)c2ccccc2o1)Nc1c(F)c(F)c(F)c(F)c1F
  A: 8 | B: -4 | C: · | D: · | E: · | F: -17 | G: 9 | H: ·

smiles: Cc1cc(NC(=O)C23CC4CC(CC(C4)C2)C3)n[nH]1
  A: -10 | B: -7 | C: -4 | D: -7 | E: i | F: · | G: 2 | H: -8

Retrieved by compound from the list above (three):
Assay codes: A = MT1-MMP act inh; B = MT1-MMP act inh RFP; C = CSC inhib; D = PABP polyA inh; E = Rce1 inh; F = Yeast UUG start; G = HIV Env fusion; H = eIF4H inh
smiles: Cc1ccc(NC(=O)COC(=O)c2ccc3ncsc3c2)c(C)c1
  A: 2 | B: 4 | C: · | D: · | E: · | F: -37 | G: -37 | H: ·

smiles: COc1ccc(S(=O)(=O)N2CCOC2CNC(=O)C(=O)NCc2ccccn2)cc1C (stereo not given)
  A: 0 | B: 0 | C: -4 | D: -2 | E: i | F: -26 | G: -6 | H: 7

smiles: Cc1cc(NC(=O)C23CC4CC(CC(C4)C2)C3)n[nH]1
  A: -10 | B: -7 | C: -4 | D: -7 | E: i | F: · | G: 2 | H: -8

The list goes on.
Assay codes: A = MT1-MMP act inh; B = MT1-MMP act inh RFP; C = CSC inhib; D = PABP polyA inh; E = Rce1 inh; F = Yeast UUG start; G = HIV Env fusion; H = eIF4H inh
smiles: COc1ccc(NS(=O)(=O)c2ccc(N3CCOCC3)c(NC(=O)c3ccco3)c2)cc1
  A: 0 | B: -7 | C: -6 | D: -2 | E: i | F: -3 | G: 1 | H: -4

smiles: Cn1cccc1/C=N/N1CCN(Cc2cccc3ccccc23)CC1
  A: 2 | B: -1 | C: 7 | D: -1 | E: i | F: · | G: 13 | H: -6

smiles: C/C(=N/NC(=O)c1sc(NS(=O)(=O)c2ccccc2)nc1C)c1sc(N)nc1C
  A: 0 | B: 4 | C: 14 | D: 12 | E: i | F: -8 | G: 2 | H: 5

smiles: Cc1cc(C)nc(N/N=C/c2c(C)oc3ccccc23)n1
  A: 0 | B: 3 | C: -20 | D: 6 | E: i | F: · | G: 9 | H: -1

smiles: Nc1cc(=O)[nH]c(SCc2csc(-c3ccccc3)n2)n1
  A: 5 | B: -4 | C: -20 | D: 6 | E: i | F: · | G: 16 | H: -4

smiles: Cc1cc(C)c(-n2[nH]nnc2=S)c(C)c1
  A: -1 | B: 1 | C: 2 | D: 3 | E: i | F: -10 | G: -3 | H: -3

smiles: O=C(NCC(=O)N1CCCCCC1)c1ccc(Cl)cc1
  A: -3 | B: 2 | C: -12 | D: 11 | E: i | F: 10 | G: -12 | H: 2

smiles: COc1ccccc1NC(=O)C1CCN(S(=O)(=O)c2cccc3nonc23)CC1
  A: -4 | B: -1 | C: 12 | D: 6 | E: · | F: -13 | G: 2 | H: -8

smiles: CCCC(=O)Nc1ccc2c(c1)nc(CN1CCN(C(=O)OCC)CC1)n2C
  A: -6 | B: -5 | C: -9 | D: -2 | E: i | F: -9 | G: -5 | H: -7

smiles: CCOc1ccc(-c2nn3c(-c4ccccc4)nnc3s2)cc1
  A: 6 | B: 2 | C: -3 | D: -5 | E: i | F: -20 | G: -65 | H: -9

smiles: S=C(NCC1CCCO1)n1nnc2ccccc21 (stereo not given)
  A: · | B: · | C: -1 | D: 6 | E: i | F: · | G: 1 | H: -8

smiles: CCN(CC(=O)NCc1ccc(Cl)cc1)C(=O)c1c(C)noc1C
  A: -2 | B: 4 | C: -10 | D: · | E: · | F: -2 | G: 6 | H: ·

smiles: O=C(NC1CCCCCC1)C1CCCN1S(=O)(=O)c1cccc2cccnc12 (stereo not given)
  A: -2 | B: 2 | C: -14 | D: -1 | E: i | F: -11 | G: -11 | H: 15

smiles: Cc1sc(NC(=O)c2ccco2)nc1-c1ccc2c(c1)CC(C)N2C(=O)C1CC1 (stereo not given)
  A: -7 | B: -20 | C: 58 | D: 17 | E: i | F: · | G: · | H: 0

smiles: COc1ccc(/C=C2\Oc3cc(OCC(=O)N4CCC(C(=O)O)CC4)ccc3C2=O)c(OC)c1
  A: -2 | B: 5 | C: -7 | D: ? | E: i | F: 11 | G: · | H: ?

smiles: O=C(Cc1ccc(Cl)cc1Cl)OCC(=O)N1CCCCC1
  A: 2 | B: 1 | C: -12 | D: 9 | E: i | F: 7 | G: -71 | H: -2

smiles: COC(=O)C1NN=C(C(=O)c2ccc(Cl)cc2)C1c1ccc(OC)cc1 (stereo not given)
  A: 5 | B: 0 | C: 1 | D: 3 | E: i | F: -7 | G: · | H: 7

smiles: Fc1ccc(/C=N/n2c(COc3ccccc3)n[nH]c2=S)cc1
  A: 1 | B: 3 | C: · | D: 6 | E: i | F: -16 | G: 20 | H: 3

By substructure, those above containing fluorine
Assay codes: A = MT1-MMP act inh; B = MT1-MMP act inh RFP; C = CSC inhib; D = PABP polyA inh; E = Rce1 inh; F = Yeast UUG start; G = HIV Env fusion; H = eIF4H inh
smiles: CCOC(=O)N1CCN(C(=O)c2ccc3c(=O)n(-c4ccc(F)cc4)c(=S)[nH]c3c2)CC1
  A: -1 | B: -2 | C: -6 | D: -2 | E: i | F: -21 | G: 5 | H: -1

smiles: O=C(COC(=O)c1cc(=O)c2ccccc2o1)Nc1c(F)c(F)c(F)c(F)c1F
  A: 8 | B: -4 | C: · | D: · | E: · | F: -17 | G: 9 | H: ·

smiles: Fc1ccc(/C=N/n2c(COc3ccccc3)n[nH]c2=S)cc1
  A: 1 | B: 3 | C: · | D: 6 | E: i | F: -16 | G: 20 | H: 3

Only part of the results is shown; the hit share may differ from the screen's.
